Source: PubChem
eIF4H FP inh – inhibitors of RNA binding by human eIF4H. inhibition, % at 35 µM. Q15056. 290,000 tested, 0.94% active. eIF4H fluorescence polarization binding assay;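 active = 50% or more with normal probe brightness, or confirmed in later tests; about a fifth of its hits are not listed in these tables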;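 note: calls also rest on retests at 20 µM and on dose response follow-up; 0% = protein and probe with vehicle and 100% = probe without protein; strong numbers were not always called active; many hits fall short of the cut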
UUG fidelity – yeast start codon fidelity modulation | S. cerevisiae UUG-firefly luciferase reporter, luminescence/redox ratio | 350,000 tested, 0.13% active | activity score, % at 18.7 µM;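 active = replicate mean at a twofold rise or more, about +100% in these data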;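 note: firefly luciferase made from a UUG start codon reports start codon fidelity; reporter light over untreated wells divided by growth signal over untreated wells; some hits fall short of that in this replicate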
Rce1 inhib – inhibitors of yeast Ras-converting enzyme | Q03530 | yeast membranes, quenched prenylated peptide cleavage fluorescence | calls only | 290,000 tested, 0.27% active | AID 2563;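 active = fall in fluorescence gain of 50% or more versus controls, with final raw signal at or below 3038400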;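 note: plate controls were neutral control wells for no effect and wells lacking membranes for full effect; tested at 10 µM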
HIV Env fusion – inhibitors of HIV Env-mediated cell fusion; inhibition, % at 12.3 µM; HeLa-JRFL Env/CEM21 cell fusion, luciferase; AID 651610; 360,000 tested, 1.1% active;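 active = mean replicate inhibition score of at least 50 and every replicate individually at or above 50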;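 note: 0% = plate neutral controls and 100% = maraviroc near 300 nM; one replicate is shown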
CSC inhib – cancer stem cell inhibition | cancer stem cell-like cells viability, luminescence | inhibition, % at 7.5 µM | 300,000 tested, 1.1% active;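 active = mean at 75% or more and at least half the replicates too; tested in HMLE shEcad cells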;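 note: 0% = median of negative and 100% = median of positive control wells; the first replicate is given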
PABP polyA inh – blocks human PABP binding to poly(A) RNA; P11940; fluorescence polarization; inhibition, % at 35 µM; 290,000 tested, 1% active; AID 2014;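 active = 50% or more with normal probe brightness, or confirmed in later tests; about a fifth of its hits are not listed in these tables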;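 note: calls also rest on retests at 20 µM and on dose response follow-up; controls were probe without protein and protein plus probe with vehicle; some compounds called inactive have numbers as strong as hits; many hits fall short of the cut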
Target sequence (P11940 whole entry, looked up): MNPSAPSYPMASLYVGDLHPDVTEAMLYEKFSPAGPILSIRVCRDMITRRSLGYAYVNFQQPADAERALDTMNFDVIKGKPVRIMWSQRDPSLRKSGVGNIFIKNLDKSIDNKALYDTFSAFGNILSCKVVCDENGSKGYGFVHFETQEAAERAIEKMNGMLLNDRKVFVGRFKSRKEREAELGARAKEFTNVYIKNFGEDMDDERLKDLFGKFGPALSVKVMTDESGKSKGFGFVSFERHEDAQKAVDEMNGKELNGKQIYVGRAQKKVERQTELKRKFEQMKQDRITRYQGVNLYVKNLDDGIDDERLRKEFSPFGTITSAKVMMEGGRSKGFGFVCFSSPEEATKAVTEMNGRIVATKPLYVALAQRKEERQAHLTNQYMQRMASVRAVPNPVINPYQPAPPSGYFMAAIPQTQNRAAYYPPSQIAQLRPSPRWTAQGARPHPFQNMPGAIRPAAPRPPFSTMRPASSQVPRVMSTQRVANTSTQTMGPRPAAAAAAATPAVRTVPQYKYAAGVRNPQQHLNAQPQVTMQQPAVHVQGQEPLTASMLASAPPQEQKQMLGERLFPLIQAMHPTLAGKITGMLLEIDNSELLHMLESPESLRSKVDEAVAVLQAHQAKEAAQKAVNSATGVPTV
MT1-MMP act inh – MT1-MMP (human) activation inhibition; AID 651647; GFP/RFP ratio change, % at 20 µM; HT1080 RFP-PRO-GFP cells, GFP/RFP ratio fluorescence, overnight; percent of plate control window, DMSO zero; 360,000 tested, 0.061% active; P50281;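 active = GFP/RFP ratio change of at least 30% with cell ATP level not reduced by more than half and red fluorescence within 50% of control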; note: strong numbers were not always called active
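Material – HT1080 RFP-PRO-GFP cells · Control set – DMSO wells and RFP-L50D-GFP cells · Incubation – overnight cell settling, then overnight compound exposure, 37 °C, 5% CO2 · Compound dosing – single-point 20 µM compound, 1% DMSO · Read-out – GFP/RFP fluorescence ratio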
eIF4H FP inh retest – recorded beside eIF4H FP inh, whose call it bears; inhibition, %; compound at 20 µM; confirmation average;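 mean of two retest wells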
PABP polyA inh retest – recorded beside PABP polyA inh, whose call it bears; inhibition, %; compound at 20 µM; confirmation repeats;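 mean of two retest wells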
MT1-MMP act inh RFP – second read-out of MT1-MMP act inh, no call of its own (marks repeat the call); RFP signal change, %; measured here: RFP expression control read;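 0 = vehicle wells; hits needed this value within 50% of zero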
An asterisk follows results filed as active; & = joins results of further samples.

O=C(O)c1cccc(-n2cccc2/C=N/O)c1 was read as eIF4H FP inh 92*, UUG fidelity -16, Rce1 inhib inactive, HIV Env fusion -10, CSC inhib -9, PABP polyA inh 63*, MT1-MMP act inh 7, eIF4H FP inh retest 102*, PABP polyA inh retest 107* and MT1-MMP act inh RFP 3.
`CC(=O)NS(=O)(=O)c1ccc(NC(=O)c2ccc3c(c2)NC(=O)CS3)cc1` gave UUG fidelity -26, HIV Env fusion -9, CSC inhib -8, MT1-MMP act inh -4 and MT1-MMP act inh RFP -1.
`COc1ccccc1CCCNC(=O)C1CCC(=O)N(CCCN2CCCC2=O)C1` (stereo not given) gave eIF4H FP inh -16, UUG fidelity -12, Rce1 inhib inactive, HIV Env fusion -2, CSC inhib -7, PABP polyA inh 0, MT1-MMP act inh 0 and MT1-MMP act inh RFP 3.
Screening COC(=O)Cc1csc(NCc2ccccc2)n1 returned eIF4H FP inh -4, UUG fidelity -23, Rce1 inhib inactive, HIV Env fusion -13, CSC inhib -13, PABP polyA inh 11, MT1-MMP act inh -2 and MT1-MMP act inh RFP 3.
`CCOc1ccc(OCC)c(S(=O)(=O)NCc2ccc3c(c2)OCO3)c1` gave eIF4H FP inh -8, UUG fidelity -2, Rce1 inhib inactive, HIV Env fusion 6, CSC inhib 1, PABP polyA inh 2, MT1-MMP act inh 2 and MT1-MMP act inh RFP 3.
Cc1ccc(Cl)cc1N1CCN(C(=O)c2cccc3c(=O)c(C)c(-c4ccccc4)oc23)CC1 was read as eIF4H FP inh 5, Rce1 inhib inactive, HIV Env fusion 1, PABP polyA inh -12, MT1-MMP act inh -18 and MT1-MMP act inh RFP -21.
CN(C)S(=O)(=O)c1ccc(C(=O)Nc2ccc(S(=O)(=O)NC3=NCCCCC3)cc2)cc1 was read as eIF4H FP inh -13, UUG fidelity 4, Rce1 inhib inactive, HIV Env fusion -25, CSC inhib 8, PABP polyA inh -5, MT1-MMP act inh 1 and MT1-MMP act inh RFP -2.
COc1cccc(OCC(O)CN2CCN(c3ccccc3)CC2)c1 (stereo not given) was read as eIF4H FP inh -8&7, UUG fidelity 8&-2, Rce1 inhib inactive, HIV Env fusion -13&14, CSC inhib 3&-10, PABP polyA inh -8&10, MT1-MMP act inh -2&3 and MT1-MMP act inh RFP -3&2.
Screening NC(=O)c1ccsc1NC(=O)c1coc2ccccc2c1=O returned eIF4H FP inh 2, HIV Env fusion -100, CSC inhib 3, PABP polyA inh 8, MT1-MMP act inh 3 and MT1-MMP act inh RFP -4.
For Cc1nc(C)c(-c2csc(Nc3ccc(C(=O)O)c(O)c3)n2)s1 the results were eIF4H FP inh -1, UUG fidelity -13, Rce1 inhib inactive, HIV Env fusion -65, PABP polyA inh 8, MT1-MMP act inh 2 and MT1-MMP act inh RFP 1.
`CCOc1cc(C2C(C#N)=C(N)SC(N)=C2C#N)ccc1OCCN1CCOCC1` gave eIF4H FP inh 25, UUG fidelity 0, Rce1 inhib inactive, HIV Env fusion 34, CSC inhib -6, PABP polyA inh 31, MT1-MMP act inh -9 and MT1-MMP act inh RFP 3.
`COc1ccccc1Cc1c(-c2cccc(Cl)c2)nc2ccc(Br)cn12` gave UUG fidelity -12, HIV Env fusion 2, MT1-MMP act inh -9 and MT1-MMP act inh RFP 0.
For COc1cc(CNCc2cccnc2)ccc1OCC(=O)NC(C)(C)C the results were eIF4H FP inh -1, Rce1 inhib inactive, HIV Env fusion -41, CSC inhib -1, PABP polyA inh 8, MT1-MMP act inh -1 and MT1-MMP act inh RFP 1.
`COc1ccccc1NS(=O)(=O)c1ccc(NN=C2CCCCC2)c([N+](=O)[O-])c1` gave eIF4H FP inh 1, Rce1 inhib inactive, HIV Env fusion 15, CSC inhib -3, PABP polyA inh 2, MT1-MMP act inh 10 and MT1-MMP act inh RFP -21.
For Cc1cc(NC(=O)c2ccccc2Cl)ccc1NC(=O)c1ccccc1Cl the results were eIF4H FP inh 3, UUG fidelity -20, Rce1 inhib inactive, HIV Env fusion 1, CSC inhib -10, PABP polyA inh -2, MT1-MMP act inh 3 and MT1-MMP act inh RFP 1.
Screening CCn1cc(CNC(=O)c2ccc(C)s2)cn1 returned eIF4H FP inh 2, Rce1 inhib inactive, HIV Env fusion 2, CSC inhib -11, PABP polyA inh -5, MT1-MMP act inh 3 and MT1-MMP act inh RFP 5.
For CCCCc1cc(=O)oc2cc(C)cc(OCC(=O)Nc3ccccn3)c12 the results were eIF4H FP inh -9, UUG fidelity -23, Rce1 inhib inactive, HIV Env fusion -15, CSC inhib 6 and PABP polyA inh -2.
Screening CC(C)c1cccc(C(C)C)c1NC(=O)CN1CCCC1 returned eIF4H FP inh -9, UUG fidelity -14, Rce1 inhib inactive, HIV Env fusion -11, CSC inhib -11, PABP polyA inh 0, MT1-MMP act inh 0 and MT1-MMP act inh RFP 2.
Screening COc1ccc(C(=O)N2CCOC2CNC(=O)C(=O)NCc2ccc(C)cc2)cc1 (stereo not given) returned UUG fidelity -17, HIV Env fusion 6, MT1-MMP act inh 0 and MT1-MMP act inh RFP 0.
Screening N#Cc1cnn2c(-c3cccc(C(F)(F)F)c3)ccnc12 returned eIF4H FP inh -5, UUG fidelity 2, Rce1 inhib inactive, HIV Env fusion -25, CSC inhib -7, PABP polyA inh -4, MT1-MMP act inh 9 and MT1-MMP act inh RFP 13.
For Cc1cc2cc(CNC(=O)Cc3ccc([N+](=O)[O-])cc3)ccc2[nH]1 the results were eIF4H FP inh 8, UUG fidelity -9, Rce1 inhib inactive, HIV Env fusion -5, CSC inhib -9, PABP polyA inh -3, MT1-MMP act inh 7 and MT1-MMP act inh RFP 0.
For N#C/C(=C\c1ccc(-c2cccc([N+](=O)[O-])c2)o1)c1nnc(N2CCOCC2)n1-c1ccccc1 the results were eIF4H FP inh 3, Rce1 inhib inactive, HIV Env fusion 10, CSC inhib 67 and PABP polyA inh 6.
CCOC(=O)C1(CC2CCCCO2)CCN(S(=O)(=O)c2cc(C)cs2)CC1 (stereo not given) was read as eIF4H FP inh -7, Rce1 inhib inactive, HIV Env fusion 14, CSC inhib -17, PABP polyA inh 1, MT1-MMP act inh -4 and MT1-MMP act inh RFP -6.
For Nc1nc(-c2ccco2)nn1C(=O)c1ccc(Cl)cc1 the results were eIF4H FP inh -18, Rce1 inhib inactive, PABP polyA inh -6, MT1-MMP act inh -1 and MT1-MMP act inh RFP 2.
`Nc1nc(N)c2sc3nc(C(F)(F)F)cc(C(F)(F)F)c3c2n1` gave eIF4H FP inh 1, UUG fidelity -12, Rce1 inhib inactive, HIV Env fusion inactive, PABP polyA inh -2, MT1-MMP act inh -6 and MT1-MMP act inh RFP 1.
CC(C)(C)NC(=O)CN(C(=O)c1snc(C(=O)NC2CCCCC2)c1N)c1ccc(F)cc1 was read as eIF4H FP inh 6, UUG fidelity -1, Rce1 inhib inactive, HIV Env fusion 16, PABP polyA inh 16, MT1-MMP act inh -12 and MT1-MMP act inh RFP -16.
Screening CCN1CCN(Cc2cc(=O)oc3ccc(C)cc23)CC1 returned eIF4H FP inh -15, Rce1 inhib inactive, HIV Env fusion 0, CSC inhib -2, PABP polyA inh -9, MT1-MMP act inh 3 and MT1-MMP act inh RFP 4.
For CCOCCCN(C(=O)Cn1nnc(-c2ccc(C)o2)n1)C(C(=O)NCC1CCCO1)c1ccc(F)cc1 (stereo not given) the results were eIF4H FP inh 6, Rce1 inhib inactive, HIV Env fusion 16, CSC inhib -15, PABP polyA inh -2, MT1-MMP act inh 3 and MT1-MMP act inh RFP 3.
Screening O=C(C(=O)N1CCCC1CO)N1CCCC1CO (stereo not given) returned eIF4H FP inh 8, Rce1 inhib inactive, HIV Env fusion 7, PABP polyA inh 13, MT1-MMP act inh 2 and MT1-MMP act inh RFP 1.
For O=C(CCCCl)Nc1nc(-c2ccc3c(c2)OCCO3)cs1 the results were eIF4H FP inh 2, UUG fidelity -20, Rce1 inhib inactive, HIV Env fusion -44, CSC inhib -4, PABP polyA inh -6, MT1-MMP act inh 4 and MT1-MMP act inh RFP -2.
For Cc1cc(C)cc(CC(Cc2nc3ccccc3[nH]2)c2nc3ccccc3[nH]2)c1 (stereo not given) the results were eIF4H FP inh 20, Rce1 inhib inactive, CSC inhib 182*, PABP polyA inh 45, MT1-MMP act inh -31 and MT1-MMP act inh RFP -39.
Screening Cc1cccc(C)c1NC(=O)CSc1n[nH]c(=O)n1C1CC1 returned UUG fidelity -20, CSC inhib -8, MT1-MMP act inh 4 and MT1-MMP act inh RFP 0.
For CC1CCCC(C)N1C(=O)CSc1nc2ncnc(N)c2[nH]1 (stereo not given) the results were eIF4H FP inh -9, UUG fidelity -11, Rce1 inhib inactive, CSC inhib -5, PABP polyA inh 6, MT1-MMP act inh -1 and MT1-MMP act inh RFP -7.
`C[C@H](CO)N1C[C@H](C)[C@@H](CN(C)Cc2ccc(Oc3ccccc3)cc2)Oc2cc(Br)ccc2S1(=O)=O` gave UUG fidelity 18, HIV Env fusion 25, MT1-MMP act inh -1 and MT1-MMP act inh RFP -1.
`Cc1cccc(S(=O)(=O)N(CC(=O)Nc2ccccc2C)Cc2ccco2)c1` gave eIF4H FP inh -2, Rce1 inhib inactive, CSC inhib 7, PABP polyA inh -5, MT1-MMP act inh 11 and MT1-MMP act inh RFP 0.
For CCC(C)NC(=O)c1ccc(CSCc2ccc(Cl)cc2)o1 (stereo not given) the results were eIF4H FP inh -6, UUG fidelity -7, Rce1 inhib inactive, HIV Env fusion 9, CSC inhib 17, PABP polyA inh -5, MT1-MMP act inh 4 and MT1-MMP act inh RFP 0.
For Cc1c(CCC(=O)O)c(=O)oc2cc3occ(-c4ccccc4)c3cc12 the results were eIF4H FP inh 14, UUG fidelity -14, Rce1 inhib inactive, HIV Env fusion -2, CSC inhib 3, PABP polyA inh 33, MT1-MMP act inh 4 and MT1-MMP act inh RFP 6.
Cc1ccc[n+](CC(=O)Nc2ccc([N+](=O)[O-])cc2Cl)c1 was read as eIF4H FP inh -10, UUG fidelity -16, Rce1 inhib inactive, HIV Env fusion -1, CSC inhib -5, PABP polyA inh 2, MT1-MMP act inh 3 and MT1-MMP act inh RFP 19.
`FC(F)(F)c1ccccc1NC(=S)N1CCN(c2ncccn2)CC1` gave eIF4H FP inh 3, UUG fidelity -19, Rce1 inhib inactive, CSC inhib -5, PABP polyA inh 3, MT1-MMP act inh 3 and MT1-MMP act inh RFP -10.
CC(c1c(O)c2ccccc2[nH]c1=O)C1(C)CCC(O)C(C)(C)O1 (stereo not given) was read as eIF4H FP inh 2, UUG fidelity -12, Rce1 inhib inactive, CSC inhib -7, PABP polyA inh 12, MT1-MMP act inh 1 and MT1-MMP act inh RFP -1.
O=C(c1ccnc(Cl)c1)N1CCCC(Nc2ccc(F)cc2)C1 (stereo not given) was read as eIF4H FP inh 6, UUG fidelity -2, Rce1 inhib inactive, HIV Env fusion -11, CSC inhib 4, PABP polyA inh 2, MT1-MMP act inh -1 and MT1-MMP act inh RFP 1.
`COc1cc(NC(=O)CCS(=O)(=O)c2ccc3c(c2)n(C)c(=O)c(=O)n3C)cc(OC)c1` gave eIF4H FP inh -15, UUG fidelity -12, Rce1 inhib inactive, HIV Env fusion -20, CSC inhib -7, PABP polyA inh 3, MT1-MMP act inh 14 and MT1-MMP act inh RFP 5.
For CC(=O)Nc1ccc(NC(=S)NC(=O)/C=C/c2ccc(Cl)cc2)cc1 the results were eIF4H FP inh 6, Rce1 inhib inactive, HIV Env fusion 13, CSC inhib 11, PABP polyA inh 47, MT1-MMP act inh -1 and MT1-MMP act inh RFP 4.

Only part of the results is shown. The share of hits here may be higher or lower than overall.
